Bioassay records as filed in PubChem BioAssay.
CSC inhib: blocks cancer stem cells; cancer stem cell-like cells viability, luminescence; inhibition, % at 7.5 µM; hit rate 1.1% among 300,000; AID 2717;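 active = mean at 75% or more and at least half the replicates too; tested in HMLE shEcad cells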;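 also: 0% = median of negative and 100% = median of positive control wells; the first replicate is given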
PABP polyA inh: PABP-poly(A) binding inhibition; P11940; PABP-poly(A) RNA binding, fluorescence polarization; inhibition, % at 35 µM; hit rate 1% among 290,000; AID 2014;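 active = 50% or more with normal probe brightness, or confirmed in later tests; about a fifth of its hits are not listed in these tables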;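 also: calls also rest on retests at 20 µM and on dose response follow-up; controls were probe without protein and protein plus probe with vehicle; some compounds called inactive have numbers as strong as hits; many hits fall short of the cut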
Yeast UUG start: modulators of start codon recognition fidelity in yeast; S. cerevisiae UUG-firefly luciferase reporter, luminescence/redox ratio; activity score, % at 18.7 µM; hit rate 0.13% among 350,000; AID 602363;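 active = replicate mean at a twofold rise or more, about +100% in these data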;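 also: firefly luciferase made from a UUG start codon reports start codon fidelity; reporter light over untreated wells divided by growth signal over untreated wells; some hits fall short of that in this replicate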
eIF4H FP inh: inhibitors of RNA binding by human eIF4H. hit rate 0.94% among 290,000. eIF4H fluorescence polarization binding assay. Q15056. inhibition, % at 35 µM;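 active = 50% or more with normal probe brightness, or confirmed in later tests; about a fifth of its hits are not listed in these tables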;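 also: calls also rest on retests at 20 µM and on dose response follow-up; 0% = protein and probe with vehicle and 100% = probe without protein; strong numbers were not always called active; many hits fall short of the cut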
MT1-MMP act inh: inhibitors of human MT1-MMP activation; P50281; GFP/RFP ratio change, % at 20 µM; hit rate 0.061% among 360,000; HT1080 RFP-PRO-GFP cells, GFP/RFP ratio fluorescence, overnight; percent of plate control window, DMSO zero; AID 651647;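 active = GFP/RFP ratio change of at least 30% with cell ATP level not reduced by more than half and red fluorescence within 50% of control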; also: strong numbers were not always called active
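Test system: HT1080 cells expressing an RFP-PRO-GFP fluorescent reporter construct / Compound dosing: single-point 20 µM compound, 1% DMSO / Schedule: cells overnight before dosing, compound overnight, 37 °C, 5% CO2 / Evaluation: GFP/RFP fluorescence ratio / Control set: DMSO and RFP-L50D-GFP cell wells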
Rce1 inh: yeast Ras-converting enzyme inhibition; calls only; hit rate 0.27% among 290,000; Q03530; yeast membranes, quenched prenylated peptide cleavage fluorescence;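 active = fall in fluorescence gain of 50% or more versus controls, with final raw signal at or below 3038400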;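 also: plate controls were neutral control wells for no effect and wells lacking membranes for full effect; tested at 10 µM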
Target sequence (Q03530 whole entry, looked up): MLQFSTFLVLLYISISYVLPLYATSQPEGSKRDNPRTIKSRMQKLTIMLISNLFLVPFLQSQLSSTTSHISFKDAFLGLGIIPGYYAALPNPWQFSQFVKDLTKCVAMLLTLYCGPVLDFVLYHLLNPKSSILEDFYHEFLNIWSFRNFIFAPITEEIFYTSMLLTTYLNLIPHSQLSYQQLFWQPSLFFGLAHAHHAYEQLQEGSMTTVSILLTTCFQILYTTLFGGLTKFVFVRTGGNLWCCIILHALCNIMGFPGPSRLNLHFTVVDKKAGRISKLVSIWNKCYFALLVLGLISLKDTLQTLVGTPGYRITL
Env fusion inh: inhibitors of HIV Env-mediated cell fusion | HeLa-JRFL Env/CEM21 cell fusion, luciferase | inhibition, % at 12.3 µM | hit rate 1.1% among 360,000 | AID 651610;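 active = mean replicate inhibition score of at least 50 and every replicate individually at or above 50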;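 also: 0% = plate neutral controls and 100% = maraviroc near 300 nM; one replicate is shown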
eIF4H FP inh retest: also measured in eIF4H FP inh; calls as there; inhibition, %; compound at 20 µM; confirmation average;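 mean of two retest wells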
PABP polyA inh retest: further read-out of PABP polyA inh, marked with its call; inhibition, %; compound at 20 µM; confirmation repeats;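 mean of two retest wells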
MT1-MMP act inh RFP: recorded beside MT1-MMP act inh, whose call it bears; RFP signal change, %; measured here: RFP expression control read;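 0 = vehicle wells; hits needed this value within 50% of zero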
Starred values were filed as active, the others as inactive; i = inactive; / = no result given; + = active, no number.

SMILES | CSC inhib | PABP polyA inh | Yeast UUG start | eIF4H FP inh | MT1-MMP act inh | MT1-MMP act inh RFP | Rce1 inh | Env fusion inh | others
S=C(NCc1ccco1)NCC(c1ccco1)N1CCCCC1 (centres undefined) | 53.1 | 23.6 | / | 8.9 | -3.3 | -2.5 | i | 2.2
CN(Cc1cnccn1)C(=O)C1CCC(=O)N(CCc2ccc(Cl)cc2)C1 (centres undefined) | -22.2 | -5.9 | 1.4 | -7.3 | 3.7 | 1.8 | i | -1.1
O=[N+]([O-])c1ccc2nc(-c3ccccc3)n(OCc3ccc(Cl)cc3)c2c1 | 25.7 | 13.6 | -0.7 | -1.6 | 6.5 | -6.6 | i | -70.9
Cc1cc(C(=O)NN=C2CCCCCC2)c(C)o1 | 4.9 | 0.2 | -30.7 | -2.9 | 4.9 | 8.3 | i | -8.3
COC(=O)c1c(NC(=S)NNS(=O)(=O)c2ccc(OC)cc2OC)sc2c1CCCCCC2 | -3.0 | -11.6 | -26.9 | 86.0 | -1.2 | 1.2 | i | -5.3 | eIF4H FP inh retest=-8.4;PABP polyA inh retest=19.7
COc1ccc(/C=N/Nc2nccnc2Cl)cc1 | 32.2 | -3.4 | -45.2 | -5.3 | -1.8 | -1.4 | i | /
O=C(Nc1cccc(Cl)c1)c1ccc(NCCCN2CCOCC2)c([N+](=O)[O-])c1 | / | 5.6 | / | 2.7 | 4.4 | -6.5 | i | /
COc1cc(OC)cc(C(=O)OCCCOC(=O)c2cc(OC)cc(OC)c2)c1 | -5.4 | -1.0 | -21.2 | 1.5 | -0.8 | -0.3 | i | 6.2
CCOC(=O)C1(CCOc2ccccc2)CCN(C(=O)c2ccc(-n3cccn3)cc2)CC1 | -2.7 | -2.1 | / | 4.7 | -12.8 | -27.4 | i | 26.0
CCC(C)(C)n1nnnc1C(C(C)C)N(Cc1cccnc1)Cc1ccco1 (centres undefined) | 3.9 | -11.7 | -17.2 | -3.8 | -7.6 | -2.1 | i | 34.6
COc1ccccc1N(C)S(=O)(=O)c1ccc(C(=O)OCC(=O)NCCC2=CCCCC2)cc1 | -5.0 | 1.0 | / | 3.5 | -2.9 | 0.2 | i | -25.6
CCC(=O)NC(=S)Nc1ccc(NC(=O)c2ccco2)c(OC)c1 | -8.6 | -0.8 | / | -7.0 | 2.4 | 1.5 | i | /
CC(=O)N1CCN(C(=S)NC(=O)c2c(-c3ccccc3Cl)noc2C)CC1 | -1.0 | -5.6 | / | 3.0 | -0.1 | 3.1 | i | -5.4
C(=C\c1ccccc1)/CN1CCN(Cc2ccc3c(c2)OCO3)CC1 | 21.6 | 1.2 | -4.6 | -2.2 | 1.6 | 0.6 | i | -5.4
COc1ccc(-n2cc(CN(C)Cc3n[nH]c(=O)[nH]3)c(-c3cccc(F)c3)n2)cc1 | 9.0 | -1.3 | / | 0.7 | -0.5 | -7.4 | i | -9.0
Cc1ccc(N2C(=O)/C(=C/c3ccco3)SC2=S)cc1 | -8.6 | 3.5 | / | 83.7 | 1.3 | 16.5 | i | -8.9 | eIF4H FP inh retest=-17.1;PABP polyA inh retest=-0.9
CC(Sc1nc(C(F)(F)F)nc2ccccc12)C(=O)NC1CCCC1 (centres undefined) | / | / | -16.7 | / | 1.8 | -5.6 | / | -9.4
CCC(=O)N(Cc1cc(=O)[nH]c2ccccc12)C1CCCCC1 | -5.7 | 4.0 | -1.1 | -4.4 | 0.0 | 1.5 | i | -18.5
CC(C)[C@H](NC(N)=O)C(=O)Nc1cccc(S(=O)(=O)N2CCOCC2)c1 | / | -3.3 | / | 6.2 | -5.8 | 0.0 | i | 6.4
Cc1c([N+](=O)[O-])cc(C(=O)Oc2ccc(Br)cc2C(=S)N2CCCCC2)cc1[N+](=O)[O-] | -11.3 | 1.6 | -14.3 | 2.6 | 6.0 | 5.7 | i | -28.0
O=C(c1ccccc1NS(=O)(=O)c1ccc(Br)s1)N1CCOCC1 | -20.2 | 2.5 | -5.9 | -6.7 | -3.0 | 2.9 | / | -20.8
CCc1sc(C(=O)Nc2cccc(C(C)=O)c2)cc1C | -6.1 | -14.9 | -8.7 | -4.0 | 5.0 | 2.6 | i | /
C/C(=N\NC(N)=S)C1C2C3CC4C5CC(C42)C1C53 (centres undefined) | / | -8.4 | -29.1 | -1.3 | -25.5 | -21.4 | i | -30.8
O=C(CSc1nnc(-c2ccccc2)n1-c1ccc(Cl)cc1)N/N=C/c1ccccc1C(=O)O | -1.4 | 0.2 | -15.1 | 1.8 | -1.9 | 3.4 | i | -17.2
COc1cc(CNc2ncn[nH]2)ccc1OCC(=O)NC(C)(C)C | 10.7 | 0.9 | -22.3 | 14.3 | 1.4 | 3.3 | i | 0.7

Continuation:
SMILES | CSC inhib | PABP polyA inh | Yeast UUG start | eIF4H FP inh | MT1-MMP act inh | MT1-MMP act inh RFP | Rce1 inh | Env fusion inh | others
CCNC(=O)CC1C(=O)N(c2ccc(F)cc2)C(=O)N1CCc1ccc(OC)cc1 (centres undefined) | -2.9 | -6.3 | -14.8 | 0.0 | -2.9 | -0.5 | i | -10.5
COc1ccccc1N1C(=O)Cc2ccccc2C1=O | -7.5 | 0.5 | 4.2 | 5.7 | 0.9 | 4.8 | i | 10.3
Cc1ccc(S(=O)(=O)CCC(=O)Oc2ccc3c(C)cc(=O)oc3c2)cc1 | / | / | / | / | 0.9 | 5.9 | i | -6.6
CC(=O)N1CCN(c2ccc(NC(=O)c3ccc(Br)o3)cc2Cl)CC1 | 3.6 | -7.3 | -15.5 | 0.1 | 1.5 | 0.0 | i | -17.9
CNC(=O)COC(=O)c1ccc(-c2nc3ccccc3s2)s1 | 10.9 | -2.2 | -25.6 | -6.9 | -2.0 | 0.7 | i | /
Cc1cc(NC(=O)CCC(=O)N(CC(=O)NC2CCCC2)c2ccc3c(c2)OCCO3)no1 | 1.9 | -2.8 | -5.7 | -0.3 | -5.5 | -1.9 | i | -17.8
CC(C)c1ccc(S(=O)(=O)N(C)C2(C)CCS(=O)(=O)C2)cc1 (centres undefined) | -13.6 | / | -29.3 | / | 2.6 | 1.8 | i | -18.2
Cc1cccc(N2C(=O)CC(N3CCN(c4cccc(C(F)(F)F)c4)CC3)C2=O)c1 (centres undefined) | -1.2 | -7.1 | -8.1 | -12.7 | 7.7 | 3.5 | i | 9.2
O=c1[nH]c2ccc(S(=O)(=O)N3CCN(C4CCCCC4)CC3)cc2[nH]c1=O | 3.8 | 4.9 | -5.8 | 1.6 | 1.9 | 4.0 | + | 2.1
S=C(NCc1ccccc1)NCc1ccc2c(c1)OCO2 | -10.8 | 4.9 | / | -20.4 | 1.2 | 4.7 | i | -29.1
COc1ccc(C(=O)N/N=C\c2coc3ccccc3c2=O)cc1 | 6.8 | 4.5 | -1.5 | -12.0 | -3.2 | 0.8 | i | -4.8
COc1ccc(S(=O)(=O)N(C)c2ccc(C(=O)NCC3CCCO3)cc2)cc1OC (centres undefined) | 4.0 | -0.7 | -0.6 | 3.8 | -3.9 | -0.4 | i | 18.5
Cc1noc(C)c1CCC(=O)NC1CCCN(Cc2ccc(Cl)cc2)C1 (centres undefined) | -12.9 | 4.8 | -2.3 | 3.3 | -1.7 | -3.1 | i | 17.6
COc1cc(C2C(=O)c3ccccc3C2=O)ccc1O | -7.9 | 5.0 | -3.9 | 1.1 | -0.2 | -2.0 | i | 4.0
COc1ccc(CNC(=O)c2ccc(CS(=O)(=O)Cc3ccccc3F)o2)cc1 | 1.4 | -10.7 | 1.2 | 8.6 | 3.4 | -1.8 | i | 16.6
Cc1c(N/C=C/C(=O)C(F)(F)F)c(=O)n(-c2ccccc2)n1C | -6.1 | 6.9 | 7.1 | -5.8 | -1.6 | 2.8 | i | 21.8
Cc1ccc(-c2nnc(N3CCCCC3)c3ccccc23)cc1S(=O)(=O)N(C)C | -3.9 | -0.2 | -8.1 | -2.9 | -6.4 | -15.6 | i | /
O=C(Nc1ccc(S(=O)(=O)Nc2ncccn2)cc1)c1cccc(Br)c1 | / | 2.1 | 5.6 | -4.5 | 0.6 | 4.4 | i | -23.0
Cc1cnnc2c1-c1nonc1CC2 | -16.8 | 40.6 | -7.3 | 1.0 | 0.7 | 3.2 | i | /
N#Cc1cc(-c2ccccc2)[nH]c1-c1nccc2ccccc12 | 16.9 | -1.7 | 2.4 | -8.3 | -8.5 | -28.2 | i | 23.9
Cc1cc(C)c(S(=O)(=O)N(CC(=O)O)C2CCCCC2)c(C)c1 | -4.3 | 6.7 | -12.2 | -1.5 | -2.4 | -2.8 | i | 10.8
O=C(Cc1ccc(-c2ccccc2)cc1)NC(c1ccccc1)c1ccccc1 | 16.6 | 1.5 | / | 1.1 | -8.8 | -5.2 | i | 17.9
Cc1ccc(S(=O)(=O)N(C)c2ccc(OC(=O)c3ccc(N4CCCC4=O)cc3)cc2)cc1 | -22.3 | -8.8 | 2.8 | -5.7 | -1.3 | 0.4 | i | /
CC(C)CCC(O)(CCC(C)C)C(=O)NNc1ccccc1 | 13.2 | 10.2 | -19.3 | 4.6 | 1.7 | 3.4 | i | /
Cc1ccc(C(=O)NC2CC3CCC(C2)N3C)cc1 (centres undefined) | / | / | -5.4 | / | -3.8 | -1.8 | / | 7.5

Structures from the list above that contain an aryl thioether with sulfur outside any ring (2):
SMILES | CSC inhib | PABP polyA inh | Yeast UUG start | eIF4H FP inh | MT1-MMP act inh | MT1-MMP act inh RFP | Rce1 inh | Env fusion inh | others
CC(Sc1nc(C(F)(F)F)nc2ccccc12)C(=O)NC1CCCC1 (centres undefined) | / | / | -16.7 | / | 1.8 | -5.6 | / | -9.4
O=C(CSc1nnc(-c2ccccc2)n1-c1ccc(Cl)cc1)N/N=C/c1ccccc1C(=O)O | -1.4 | 0.2 | -15.1 | 1.8 | -1.9 | 3.4 | i | -17.2

Next section
SMILES | CSC inhib | PABP polyA inh | Yeast UUG start | eIF4H FP inh | MT1-MMP act inh | MT1-MMP act inh RFP | Rce1 inh | Env fusion inh | others
CC(=O)c1ccc(NC(=O)N2C3CCC2CC(O)(c2cccnc2)C3)cc1 (centres undefined) | -7.5 | -5.2 | -1.5 | -5.5 | 5.5 | 5.8 | i | -5.0
COc1ccccc1C(C[N+](=O)[O-])c1c(N)n(C)c(=O)n(C)c1=O (centres undefined) | 55.0 | 10.0 | -28.8 | -4.7 | 4.0 | -15.2 | i | -16.2
CCCn1cnc2c(=O)oc3ccccc3c21 | 5.7 | 1.0 | 4.5 | 1.8 | -4.5 | -9.5 | / | -15.9
CC(=O)c1csc(COc2ccccc2)n1 | -5.1 | -8.5 | / | -1.2 | 0.3 | 0.6 | i | -9.5
CCCN(C(=O)c1c(CC)noc1C)c1c(N)n(Cc2ccccc2)c(=O)[nH]c1=O | -10.1 | / | 10.0 | / | 3.7 | 4.1 | i | 5.7
O=C(NCc1ccc(F)cc1)C(=O)NCC(c1ccco1)N1CCOCC1 (centres undefined) | 1.1 | 1.2 | -11.5 | -0.8 | 0.2 | -1.0 | i | -12.0
COc1ccccc1-c1nnc(NC(=O)OCC(C)C)s1 | -12.7 | 11.1 | -19.8 | -6.5 | -2.8 | -1.0 | i | /
Cc1cc(N2CCN(C)CC2)nc2ccc(NC(=O)c3ccc4c(c3)OCO4)cc12 | 18.5 | -15.9 | 23.3 | -1.8 | -0.5 | -4.3 | / | -57.4
CCOc1ccc(C(C)=O)cc1CN1C(=O)NC2(CCCCCC2)C1=O | -2.6 | -22.4 | 2.1 | -4.4 | 5.1 | 2.8 | i | 0.9
COCCNC(=O)c1cnn2c(C(F)F)cc(-c3ccccc3)nc12 | -6.1 | 3.2 | / | -5.8 | 0.3 | 0.8 | i | 7.5

Some of the compounds tested. The share of hits here may be higher or lower than overall.
